Assay outcomes (PubChem)
eIF4H inh = human eIF4H binding inhibitors, primary screen, translation initiation inhibitor project, biochemical, uHTS, fluorescence polarization; Eukaryotic translation initiation factor 4H (Homo sapiens), Q15056; eIF4H fluorescence polarization binding assay; inhibition, % at 35 µM; 0.94% of 290,000 active; AID 2012, 2009;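 active = 50% or more with normal probe brightness, or confirmed in later tests; about a fifth of its hits are not listed in these tables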;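 also: calls also rest on retests at 20 µM and on dose response follow-up; 0% = protein and probe with vehicle and 100% = probe without protein; strong numbers were not always called active; many hits fall short of the cut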
Rce1 inh = yeast Rce1p protease inhibitors, primary screen, biochemical, fluorescence, cell-free homogeneous; yeast membranes, quenched prenylated peptide cleavage fluorescence; calls only; 0.27% of 290,000 active; AID 2563, 2010;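 active = fall in fluorescence gain of 50% or more versus controls, with final raw signal at or below 3038400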;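 also: plate controls were neutral control wells for no effect and wells lacking membranes for full effect; tested at 10 µM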
Target sequence (Q03530 whole entry, looked up): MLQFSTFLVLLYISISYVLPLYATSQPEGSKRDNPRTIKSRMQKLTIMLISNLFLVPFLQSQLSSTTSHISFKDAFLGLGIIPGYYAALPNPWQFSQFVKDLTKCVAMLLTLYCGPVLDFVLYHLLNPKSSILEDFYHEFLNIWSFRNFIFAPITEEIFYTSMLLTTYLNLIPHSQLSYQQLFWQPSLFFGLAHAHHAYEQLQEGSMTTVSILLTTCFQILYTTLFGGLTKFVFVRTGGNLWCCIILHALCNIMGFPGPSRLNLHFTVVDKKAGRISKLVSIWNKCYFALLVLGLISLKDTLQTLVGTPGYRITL
CSC inhib = cancer stem cell viability inhibitors, primary screen, luminescence. cancer stem cell-like cells viability. inhibition, % at 7.5 µM. 1.1% of 300,000 active. AID 2717, 2010;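 active = mean at 75% or more and at least half the replicates too; tested in HMLE shEcad cells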;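 also: 0% = median of negative and 100% = median of positive control wells; the first replicate is given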
MT1-MMP act inh = blockers of MT1-MMP proenzyme processing, primary screen, HT1080 RFP-PRO-GFP cells, GFP/RFP fluorescence. Matrix metalloproteinase-14 (Homo sapiens), P50281. GFP/RFP ratio change, % at 20 µM. GFP/RFP ratio fluorescence, overnight; percent of plate control window, DMSO zero. 0.061% of 360,000 active. AID 651647, 2012;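 active = GFP/RFP ratio change of at least 30% with cell ATP level not reduced by more than half and red fluorescence within 50% of control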; also: strong numbers were not always called active
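Test system: HT1080 RFP-PRO-GFP cells; Benchmarks: DMSO and RFP-L50D-GFP cell wells; Timing: cells overnight before dosing, compound overnight, 37 °C, 5% CO2; Compound: one 20 µM compound dose with 1% DMSO; Read-out: GFP/RFP fluorescence ratio.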
Yeast UUG start = modulators of yeast start codon fidelity, primary screen, whole organism, S. cerevisiae, single point, plate reader; activity score, % at 18.7 µM; S. cerevisiae UUG-firefly luciferase reporter, luminescence/redox ratio; AID 602363, 2012; 0.13% of 350,000 active;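 active = replicate mean at a twofold rise or more, about +100% in these data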;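 also: firefly luciferase made from a UUG start codon reports start codon fidelity; reporter light over untreated wells divided by growth signal over untreated wells; some hits fall short of that in this replicate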
Env fusion inh = inhibitors of HIV-1 Env-driven cell-cell fusion, primary screen, HeLa-JRFL effector, CEM21 target cells, luciferase. inhibition, % at 12.3 µM. 1.1% of 360,000 active;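 active = mean replicate inhibition score of at least 50 and every replicate individually at or above 50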;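 also: 0% = plate neutral controls and 100% = maraviroc near 300 nM; one replicate is shown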
PABP polyA inh = PABP poly(A) RNA binding inhibitors, primary screen, biochemical, fluorescence polarization, uHTS; Polyadenylate-binding protein 1 (Homo sapiens), P11940; inhibition, % at 35 µM; 1% of 290,000 active; AID 2014, 2009;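 active = 50% or more with normal probe brightness, or confirmed in later tests; about a fifth of its hits are not listed in these tables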;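 also: calls also rest on retests at 20 µM and on dose response follow-up; controls were probe without protein and protein plus probe with vehicle; some compounds called inactive have numbers as strong as hits; many hits fall short of the cut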
Target sequence (P11940 whole entry, looked up): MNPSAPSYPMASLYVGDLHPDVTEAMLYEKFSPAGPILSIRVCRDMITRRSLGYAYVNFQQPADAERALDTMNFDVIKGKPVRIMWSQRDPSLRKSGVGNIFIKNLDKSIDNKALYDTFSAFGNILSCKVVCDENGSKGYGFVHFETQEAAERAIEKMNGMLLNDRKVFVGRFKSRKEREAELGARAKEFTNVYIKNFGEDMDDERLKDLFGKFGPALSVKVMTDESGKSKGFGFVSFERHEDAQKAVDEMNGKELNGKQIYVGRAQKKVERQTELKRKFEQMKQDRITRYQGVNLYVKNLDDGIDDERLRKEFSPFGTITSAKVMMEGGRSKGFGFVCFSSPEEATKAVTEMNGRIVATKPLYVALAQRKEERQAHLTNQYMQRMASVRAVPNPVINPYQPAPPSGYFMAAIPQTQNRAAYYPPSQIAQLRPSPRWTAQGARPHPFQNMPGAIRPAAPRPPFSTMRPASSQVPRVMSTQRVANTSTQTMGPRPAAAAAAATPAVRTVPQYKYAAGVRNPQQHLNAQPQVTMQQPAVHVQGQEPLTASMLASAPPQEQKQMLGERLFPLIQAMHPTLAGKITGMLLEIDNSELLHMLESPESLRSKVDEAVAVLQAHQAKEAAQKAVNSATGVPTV
MT1-MMP act inh RFP = further read-out of MT1-MMP act inh, marked with its call; RFP signal change, %; measured here: RFP expression control read;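 0 = vehicle wells; hits needed this value within 50% of zero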
Starred values were filed as active, the others as inactive; & = joins results of further samples. These rows are one share of the data; rates above refer to the full screens.

CNC(=O)c1ccc(-c2ccc(Cl)c(Cl)c2)s1 was read as eIF4H inh 0, Rce1 inh inactive, CSC inhib 21, MT1-MMP act inh 2, Env fusion inh -59, PABP polyA inh -9 and MT1-MMP act inh RFP -1.
For O=C(Nc1cccc(Cl)c1)c1ccc(F)c(S(=O)(=O)NCc2ccc3c(c2)OCO3)c1 the results were eIF4H inh 6, Rce1 inh inactive, CSC inhib 35, MT1-MMP act inh -1, PABP polyA inh 5 and MT1-MMP act inh RFP -1.
Screening O=C(/C=C/c1ccco1)NC(=S)N1CCCCC1 returned eIF4H inh 6, Rce1 inh inactive, CSC inhib -9, MT1-MMP act inh 1, Yeast UUG start -9, Env fusion inh -18, PABP polyA inh 1 and MT1-MMP act inh RFP 9.
`CC(C)Cn1c(S(=O)(=O)O)nc2ccccc21` gave eIF4H inh 8, Rce1 inh inactive, CSC inhib -7, MT1-MMP act inh -5, Env fusion inh -23, PABP polyA inh -4 and MT1-MMP act inh RFP 2.
O=C(Nc1nc2ccc(S(=O)(=O)N3CCCC3)cc2s1)C1CCCCC1 was read as eIF4H inh -9, Rce1 inh inactive, CSC inhib 58, MT1-MMP act inh -5, Yeast UUG start -4, Env fusion inh -12, PABP polyA inh 5 and MT1-MMP act inh RFP -10.
COc1ccc2nc3ccccc3nc2c1N was read as eIF4H inh 39, Rce1 inh inactive, CSC inhib -6, MT1-MMP act inh 6, Yeast UUG start -18, Env fusion inh -55, PABP polyA inh 32 and MT1-MMP act inh RFP -1.
O=C(NCCNC1CCC(c2ccccc2)CC1)c1ccc(F)cc1 (centres undefined) was read as eIF4H inh 1, Rce1 inh inactive, CSC inhib 0, Yeast UUG start 11, Env fusion inh 2 and PABP polyA inh 4.
Cc1ccccc1C(=O)Nc1ccccc1C(=O)NCC(C)C was read as eIF4H inh -1, Rce1 inh inactive, CSC inhib -11, MT1-MMP act inh -1, Yeast UUG start -13, Env fusion inh -6, PABP polyA inh -5 and MT1-MMP act inh RFP 1.
`Cc1nn(C(C)C(=O)NCCCc2ccccc2)c(=O)c2nn(-c3ccccc3)c(C)c12` (centres undefined) gave eIF4H inh -17, Rce1 inh inactive, CSC inhib -5, MT1-MMP act inh 5, Yeast UUG start 7, Env fusion inh -8, PABP polyA inh 6 and MT1-MMP act inh RFP -9.
COc1cc(NC(=S)N2CCC(C(O)(c3ccccc3)c3ccccc3)CC2)cc(OC)c1 was read as eIF4H inh 4, Rce1 inh inactive, CSC inhib -1, MT1-MMP act inh -21, Yeast UUG start 3, Env fusion inh 18, PABP polyA inh -7 and MT1-MMP act inh RFP -10.
`COc1ccccc1C(=O)Nc1ccnn1C1CCN(CCCC2CCCC2)CC1` gave eIF4H inh -2, Rce1 inh inactive, CSC inhib 0, MT1-MMP act inh -1, Yeast UUG start 0, Env fusion inh -1, PABP polyA inh -2 and MT1-MMP act inh RFP 4.
For COC(=O)c1cc2sc(Cl)cc2n1CC(=O)NCC1CCCO1 (centres undefined) the results were eIF4H inh -2, Rce1 inh inactive, CSC inhib 10, MT1-MMP act inh -1, Env fusion inh -16, PABP polyA inh 1 and MT1-MMP act inh RFP 4.
`COc1ccc(NCc2nnc(SCc3ccccc3)n2-c2ccc(OC)cc2)cc1` gave eIF4H inh 2, Rce1 inh inactive, CSC inhib -14, MT1-MMP act inh -1, Yeast UUG start -6, Env fusion inh -50, PABP polyA inh -6 and MT1-MMP act inh RFP -4.
`CCN(C(=O)c1cccs1)C1CCS(=O)(=O)C1` (centres undefined) gave Rce1 inh inactive, MT1-MMP act inh -2, Yeast UUG start -16, Env fusion inh -1 and MT1-MMP act inh RFP 2.
Screening CCOc1ccccc1N(CC(=O)NC1CCCCC1)C(=O)CNC(=O)c1ccco1 returned eIF4H inh -3, Rce1 inh inactive, CSC inhib -1, MT1-MMP act inh 0, Yeast UUG start -3, PABP polyA inh 0 and MT1-MMP act inh RFP 4.
Screening NC(Cc1ccccc1)C(=O)N1CCCCC1 (centres undefined) returned eIF4H inh -14, Rce1 inh inactive, CSC inhib 0, MT1-MMP act inh -14, Yeast UUG start -8, Env fusion inh 10, PABP polyA inh 10 and MT1-MMP act inh RFP -7.
CC(C)Nc1nc(Oc2ccc(Cl)cc2Cl)cc(C(F)(F)F)n1 was read as eIF4H inh 0, Rce1 inh inactive, MT1-MMP act inh -34, Yeast UUG start -9, Env fusion inh -11, PABP polyA inh 1 and MT1-MMP act inh RFP -23.
`COC(=O)CCCCC1SCC2NC(=O)NC21O` (centres undefined) gave eIF4H inh 2, Rce1 inh inactive, CSC inhib -1, MT1-MMP act inh 5, PABP polyA inh -1 and MT1-MMP act inh RFP 3.
CC(C)(C)OC(=O)N[C@H](C(=O)OC(C)(C)C)c1ccc(C(F)(F)F)cc1 was read as CSC inhib 6, MT1-MMP act inh 1, Yeast UUG start 17, Env fusion inh -13 and MT1-MMP act inh RFP 2.
`NS(=O)(=O)c1ccc(NC(=O)c2cccc(N3C(=O)c4ccccc4C3=O)c2)cc1` gave eIF4H inh -21, Rce1 inh inactive, MT1-MMP act inh 2, Yeast UUG start -13, Env fusion inh 0, PABP polyA inh -46 and MT1-MMP act inh RFP -4.
`CCOc1ccccc1NC(=O)CN1C(=O)COc2ccc(S(=O)(=O)N3CCOCC3)cc21` gave Rce1 inh inactive, CSC inhib 3, MT1-MMP act inh 1, Yeast UUG start 17, Env fusion inh -4 and MT1-MMP act inh RFP 5.
Screening O=[N+]([O-])c1cc(C(F)(F)F)ccc1N/N=C/c1cc2ccccc2nc1Cl returned eIF4H inh -6, Rce1 inh inactive, CSC inhib -8 and PABP polyA inh -6.
COc1cc(/C=C2/NC(=O)NC2=O)cc(Br)c1OCc1ccc(C(=O)O)cc1 was read as eIF4H inh 15, Rce1 inh inactive, CSC inhib 0, MT1-MMP act inh 0, Env fusion inh 5, PABP polyA inh -10 and MT1-MMP act inh RFP 3.
Screening CC(C)OC(=O)N(C)C[C@H]1OCc2cnnn2CCCC(=O)N([C@H](C)CO)C[C@H]1C returned MT1-MMP act inh -5, Yeast UUG start -13&0&-2, Env fusion inh -36 and MT1-MMP act inh RFP -6.
CCCCNC(=S)Nc1cc([N+](=O)[O-])ccc1C was read as eIF4H inh 2, Rce1 inh inactive, MT1-MMP act inh -3, Yeast UUG start -9, Env fusion inh -12, PABP polyA inh 18 and MT1-MMP act inh RFP 1.
For COc1ccc(NC(=O)C2CCN(c3nc(C)cc(C)n3)CC2)cc1 the results were eIF4H inh -3, Rce1 inh inactive, CSC inhib -1, MT1-MMP act inh 1, Yeast UUG start -28, Env fusion inh -60, PABP polyA inh -10 and MT1-MMP act inh RFP 3.
Screening NC(=O)C(c1ccc(Cl)cc1)c1ncc(C(F)(F)F)cc1Cl (centres undefined) returned eIF4H inh -9, Rce1 inh inactive, CSC inhib 1, MT1-MMP act inh -5, Yeast UUG start -2, Env fusion inh -7, PABP polyA inh 0 and MT1-MMP act inh RFP -6.
`COc1ccc(C(=O)NC2CC2)cc1OC1CCN(C/C=C/c2ccccc2)CC1` gave eIF4H inh -2, Rce1 inh inactive, CSC inhib -6, MT1-MMP act inh -8, Yeast UUG start -3, Env fusion inh -5, PABP polyA inh -2 and MT1-MMP act inh RFP 3.
Nc1nc(SCC(=O)NC2CCCCCC2)[nH]c(=O)c1-c1ccccc1 was read as eIF4H inh -1, Rce1 inh inactive, CSC inhib -5, MT1-MMP act inh 6, Yeast UUG start -33, PABP polyA inh -7 and MT1-MMP act inh RFP 0.
For C=CCSc1nnc(NC(=O)c2nc(SCC)ncc2Cl)s1 the results were eIF4H inh 0, Rce1 inh inactive, CSC inhib 10, MT1-MMP act inh -4, Yeast UUG start -25, PABP polyA inh 1 and MT1-MMP act inh RFP -2.
For CC(NS(=O)(=O)c1ccc(CCC(=O)NCC2CCCO2)cc1)c1ccccc1 (centres undefined) the results were eIF4H inh -11, Rce1 inh inactive, MT1-MMP act inh 2, Yeast UUG start -2, PABP polyA inh 10 and MT1-MMP act inh RFP 0.
`CCOC(=O)c1c(CN2CCCCC2)n(C)c2cc(Br)c(OC)cc12` gave eIF4H inh -3, Rce1 inh inactive, CSC inhib 1, MT1-MMP act inh -8, Yeast UUG start -7, PABP polyA inh 6 and MT1-MMP act inh RFP -10.
`COc1ccc(C(O)c2ncc(-c3cccc4ccccc34)[nH]2)cc1F` (centres undefined) gave MT1-MMP act inh -1, Yeast UUG start -34, Env fusion inh -35 and MT1-MMP act inh RFP -8.
`O=C(COC(=O)/C=C/c1cccc(F)c1)Nc1ccccc1-c1ccccc1` gave eIF4H inh -5, Rce1 inh inactive, CSC inhib -6, MT1-MMP act inh 2, Env fusion inh 17, PABP polyA inh -4 and MT1-MMP act inh RFP -1.
For O=C(COC(=O)CSc1ccccc1)NNC(=O)c1ccc([N+](=O)[O-])cc1 the results were eIF4H inh 2, Rce1 inh inactive, CSC inhib -2, MT1-MMP act inh -3, Yeast UUG start -15, Env fusion inh -26, PABP polyA inh -2 and MT1-MMP act inh RFP 1.
For Cc1ccc(C(NC(=O)NCCCN2CCOCC2)=C(Cl)Cl)cc1F the results were eIF4H inh 0, Rce1 inh inactive, CSC inhib -5, MT1-MMP act inh 2, Yeast UUG start -3, Env fusion inh 1, PABP polyA inh -7 and MT1-MMP act inh RFP 1.
For COc1cc(CN2CCN(CC#Cc3ccccc3)CC2CCO)cc(OC)c1 (centres undefined) the results were eIF4H inh 10, Rce1 inh inactive, CSC inhib 8, MT1-MMP act inh -2, Yeast UUG start -2, Env fusion inh 5, PABP polyA inh -9 and MT1-MMP act inh RFP -2.
For COc1ccc(-c2cc(C(=O)N3CCN(c4ccccc4OC)CC3)no2)cc1 the results were eIF4H inh 7, CSC inhib -2, MT1-MMP act inh -2, Yeast UUG start 11, Env fusion inh 2, PABP polyA inh 23 and MT1-MMP act inh RFP 1.
For O=C(COC(=O)C1=COCCO1)Nc1cc(C(F)(F)F)ccc1Cl the results were CSC inhib 5, MT1-MMP act inh 6, Yeast UUG start -20, Env fusion inh -36 and MT1-MMP act inh RFP 3.
`Cc1ccc(NC(=O)c2cc(-c3cccs3)on2)cc1C` gave eIF4H inh -10, Rce1 inh inactive, CSC inhib -5, MT1-MMP act inh -5, Yeast UUG start -16, Env fusion inh -15, PABP polyA inh -17 and MT1-MMP act inh RFP -1.
Screening CCCC(O)(CCC)C(=O)NN(C(=O)CCl)c1ccccc1 returned eIF4H inh -5, CSC inhib 7, MT1-MMP act inh 2, Env fusion inh 85*, PABP polyA inh -6 and MT1-MMP act inh RFP 1.
`COC(=O)c1[nH]c2ccc(C)cc2c1NC(=O)Oc1ccccc1` gave eIF4H inh -7, Rce1 inh inactive, CSC inhib -2, MT1-MMP act inh 11, Yeast UUG start -18, Env fusion inh -94, PABP polyA inh 7 and MT1-MMP act inh RFP 15.
`C=CCC(CC=C)(C(N)=O)c1ccccc1` gave eIF4H inh -2, Rce1 inh inactive, CSC inhib 3, MT1-MMP act inh -3, Yeast UUG start -18, Env fusion inh 11, PABP polyA inh -4 and MT1-MMP act inh RFP 1.
